Assay outcomes deposited in PubChem BioAssay by National Center for Advancing Translational Sciences (NCATS).
VDR inhibitor: blocks the human vitamin D receptor | P11473 | Potency, µM, for inactives: max response, negative = inhibition, usual class: inhibitors | 400,000 tested, 0.93% active | VDR-SRC2-3 peptide fluorescence polarization, 2 h; active means well fitted inhibition curve with a large enough effect; inconclusive means small, poorly fitted or top-dose-only effect, or another doubt; inactive means no such curve, though single readings can be large or run the other way; further: series mostly up to about 120 µM
Target sequence (P11473 whole entry, looked up): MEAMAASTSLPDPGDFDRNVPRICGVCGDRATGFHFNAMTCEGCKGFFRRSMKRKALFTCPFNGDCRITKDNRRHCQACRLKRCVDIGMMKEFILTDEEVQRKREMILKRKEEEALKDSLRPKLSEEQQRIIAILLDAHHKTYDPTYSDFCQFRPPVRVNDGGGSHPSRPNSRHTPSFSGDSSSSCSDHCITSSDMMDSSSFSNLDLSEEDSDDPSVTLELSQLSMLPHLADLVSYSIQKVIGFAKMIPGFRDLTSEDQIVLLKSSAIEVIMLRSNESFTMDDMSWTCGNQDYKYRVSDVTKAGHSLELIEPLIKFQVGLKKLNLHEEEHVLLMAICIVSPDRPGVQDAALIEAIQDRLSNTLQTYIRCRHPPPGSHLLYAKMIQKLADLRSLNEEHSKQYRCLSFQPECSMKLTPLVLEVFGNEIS
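Reagent solutions, kept cold and dark, are dispensed first; compounds are then pinned in at 23 nl, plates briefly spun, and incubated 2 h at ambient temperature. Inhibition of VDR–SRC2-3 peptide binding is read by fluorescence polarization.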
* = called active by the depositor; u = inconclusive; & = joins results of further samples. On the % scale 0 is the no-effect control and ±100 the full control effect; potency means the concentration at half of the fitted maximal effect. This is a subset; the hit share may differ from the screen's.

molecule	VDR inhibitor
Cc1ccc(/C(N)=N/OC(=O)c2cc(-c3ccccc3)nc3ccccc23)cc1	1%
CC[C@H](C)[C@H](NC(=O)[C@H](CC(C)C)NC(=O)[C@H](CO)NC(=O)[C@H](CCC(=O)O)NC(=O)[C@H](CC(C)C)NC(=O)[C@H](Cc1ccc(O)cc1)NC(=O)[C@H](CCCCN)NC(=O)[C@H](CCCCN)NC(=O)[C@H](C)NC(=O)[C@H](CO)NC(=O)[C@H](CC(C)C)NC(=O)[C@H](CCC(N)=O)NC(=O)CNC(=O)[C@H](CC(C)C)NC(=O)[C@H](CC(C)C)NC(=O)[C@H](CCCNC(=N)N)NC(=O)[C@H](CO)NC(=O)[C@H](Cc1ccccc1)NC(=O)[C@H](CC(=O)O)NC(=O)[C@H](CO)NC(=O)[C@@H](NC(=O)[C@H](Cc1ccccc1)NC(=O)[C@@H](NC(=O)CNC(=O)[C@H](CC(=O)O)NC(=O)[C@H](C)NC(=O)[C@@H](N)Cc1cnc[nH]1)C(C)C)[C@@H](C)O)C(N)=O	0%
CCOC(=O)c1ccc2c(c1)N(CC(=O)N1CCCC1)C(=O)C(C)(C)O2	-17%
COCCNS(=O)(=O)c1ccc(-c2ccc(S(=O)(=O)NCCOC)cc2)cc1	-14%
Cc1[nH]nc2c1C(c1ccc(Cl)cc1)C(C#N)=C(N)O2 (centres undefined)	-7%
Cc1c(C(=O)OC2CCCC2)[nH]c2c1C(=O)CC(c1ccc(Cl)cc1)C2 (centres undefined)	2%
Cc1cc(=S)c2cccc(C)c2[nH]1	-3%
Cc1cc(C)c(S(=O)(=O)n2cnc(C)c2)c(C)c1	3%
O=C(CSc1nnc(-c2ccccc2)o1)N1CCc2ccccc2C1	-17%
Cc1cccc(-c2nnc(-c3cccc4ccccc34)o2)c1	-13%
Cc1nccn1CC(=O)N/N=C/c1cc(Br)cs1	6%
S=C(NCc1ccccc1)NC1CCSc2ccccc21 (centres undefined)	4%
Brc1cccc(Nc2nc(-c3cccnc3)cs2)c1	-20%
CC(NC(=O)C(=O)NN=C1CCCCCC1)c1ccccc1 (centres undefined)	0%
CCOC(=O)c1c(NC(=O)CSc2nnnn2C)sc(C)c1-c1ccc(C)cc1	5%
COc1ccc(/C=C/C(=O)NCC(=O)N/N=C/c2cccs2)cc1	17%
CC(=O)Nc1ccccc1OCc1nnc(-c2ccccc2Cl)o1	12%
COc1cccc(NCc2cc3c(C(C)(C)C)nn(-c4ccccc4)c3[nH]c2=O)c1	2%
Cc1cnc(C(=O)OCC(=O)NC2CCCCCCC2)cn1	-2%
COc1ccc(NC(=O)c2ccc(N(C)S(C)(=O)=O)cc2)cc1OC	-4%
Cc1cccc(NC(=O)CS(=O)(=O)c2nc(-c3ccccc3)cn2-c2cccc(Cl)c2)c1C	6%
O=c1c(F)cn(C2CCCO2)c(=O)n1Cc1c(Cl)cccc1Cl (centres undefined)	-5%
C=C(C)Cn1c(SCC(=O)c2ccc(OC)cc2)nc2sc3c(c2c1=O)CCCC3	-7%
CCc1ccc(Nc2nnc(SCC(=O)N(C)C3CCS(=O)(=O)C3)s2)cc1 (centres undefined)	-9%
O=C(Nc1nccs1)c1ccc(Cl)s1	-9%

As a working copy, some entries already given.
molecule	VDR inhibitor
Cc1nccn1CC(=O)N/N=C/c1cc(Br)cs1	6%
S=C(NCc1ccccc1)NC1CCSc2ccccc21 (centres undefined)	4%
Brc1cccc(Nc2nc(-c3cccnc3)cs2)c1	-20%
CC(NC(=O)C(=O)NN=C1CCCCCC1)c1ccccc1 (centres undefined)	0%
CCOC(=O)c1c(NC(=O)CSc2nnnn2C)sc(C)c1-c1ccc(C)cc1	5%
COc1ccc(/C=C/C(=O)NCC(=O)N/N=C/c2cccs2)cc1	17%
CC(=O)Nc1ccccc1OCc1nnc(-c2ccccc2Cl)o1	12%
COc1cccc(NCc2cc3c(C(C)(C)C)nn(-c4ccccc4)c3[nH]c2=O)c1	2%
Cc1cnc(C(=O)OCC(=O)NC2CCCCCCC2)cn1	-2%
COc1ccc(NC(=O)c2ccc(N(C)S(C)(=O)=O)cc2)cc1OC	-4%
Cc1cccc(NC(=O)CS(=O)(=O)c2nc(-c3ccccc3)cn2-c2cccc(Cl)c2)c1C	6%
O=c1c(F)cn(C2CCCO2)c(=O)n1Cc1c(Cl)cccc1Cl (centres undefined)	-5%
C=C(C)Cn1c(SCC(=O)c2ccc(OC)cc2)nc2sc3c(c2c1=O)CCCC3	-7%
CCc1ccc(Nc2nnc(SCC(=O)N(C)C3CCS(=O)(=O)C3)s2)cc1 (centres undefined)	-9%
O=C(Nc1nccs1)c1ccc(Cl)s1	-9%

Continuation:
molecule	VDR inhibitor
CCN(CC)c1ccc(NS(=O)(=O)c2ccc3c(c2)CCCN3C(C)=O)c(C)c1	-2%
COc1cccc(-c2nc(NCc3cccnc3)c3ccccc3n2)c1	2%
CCCN(Cc1ccc(N(CC)CC)cc1)CC1CC1	2%
Cc1oc(-c2ccccc2F)nc1CS(=O)CC(=O)NC(C)C (centres undefined)	-1%
CC(C)Cc1nc(C(N)=O)c2[nH]c(=O)n(-c3ccc(F)cc3)c2n1	-12%
COc1ccc(CCNC(=O)CSc2nc3ccccc3o2)cc1OC	5%
COCCn1c(SC(C)C(=O)Nc2ccc(Cl)cn2)nnc1-c1ccncc1 (centres undefined)	-4%
COc1ccc(CCNC(=O)CSc2nc3[nH]ncc3c(=O)[nH]2)cc1OC	-4%
CCOC(=O)C1=C(CN2CCSCC2)NC(=O)NC1c1cccc([N+](=O)[O-])c1 (centres undefined)	-15%
CCC(C)NS(=O)(=O)c1ccc(S(=O)(=O)N2CCCC3(CCCCC3)C2)cc1 (centres undefined)	-13%
CCc1ccccc1NC(=O)CN1CCC(NC(=O)COC)CC1	-24%
CC1CCC(NC(=O)COC(=O)C2=NN(c3ccccc3)C(=O)CC2)CC1 (centres undefined)	22%
O=C(NCCC1CCCCN1S(=O)(=O)c1ccccc1)C(=O)Nc1ccccc1F (centres undefined)	-11%
O=C(N/N=C/c1ccccn1)C12CC3CC(CC(C3)C1)C2	11%
CC1CCC2(CC1)NC(=O)N(Cc1cccc(C(F)(F)F)c1)C2=O (centres undefined)	-5%
Cc1cc2ccccc2n1CCNC(=O)c1cccs1	u
Cc1ccc(NC(=O)COC(=O)Cn2c(C)csc2=O)c([N+](=O)[O-])c1	2%
O=C(Nc1ccccc1F)c1ccc(Br)o1	-12%&-1%
CC1CCN(S(=O)(=O)c2cccc(C(=O)Oc3ccc([N+](=O)[O-])cc3)c2)CC1	-29%
CCCCN1C(=O)NC(NS(=O)(=O)c2ccc(N)cc2)(C(F)(F)F)C1=O (centres undefined)	1%
Cc1cc(N/N=C/c2ccc(O)cc2O)c2ccccc2n1	0%
CC(=O)N1CCN(C(=O)c2ccc(Oc3ccccc3)cc2)CC1	-9%
Cc1cc(Cl)ccc1OCC(=O)NCCCN1CCOCC1	8%
NC(=O)NNC1=Nc2cccc3cccc1c23	-10%
O=C(NCC(c1ccco1)N1CCCC1)c1sc2cc(F)ccc2c1Cl (centres undefined)	18%

2 records drawn at random from those above:
molecule	VDR inhibitor
COc1ccc(CCNC(=O)CSc2nc3ccccc3o2)cc1OC	5%
Cc1cc(N/N=C/c2ccc(O)cc2O)c2ccccc2n1	0%

The list goes on.
molecule	VDR inhibitor
Cc1c(/C=N/O)sc2ccccc12	16%
Cc1cccc(NC(=O)CC2c3ccccc3Oc3ccccc32)c1	-5%
C=CCc1cccc2cc(C(=O)O)c(=O)oc12	-1%
O=C(O)CSc1nc(C(F)(F)F)cc(=O)n1-c1ccccc1	-9%
CCOC(=O)N1CCN(C(=O)CSCC(=O)Nc2nc(-c3cccs3)cs2)CC1	-3%
Cc1nn(Cc2nnc(SCC(=O)Nc3cccc(C(F)(F)F)c3)n2C)c(C)c1[N+](=O)[O-]	2%
O=C(Nc1cccc(F)c1)NC1CCCCC1	-7%
O=S(=O)(c1ccccc1)c1nc(-c2cccs2)oc1SCc1ccc(F)cc1	-6%
CSc1ncc(C(=O)NCc2ccc(Cl)cc2)c(C(F)(F)F)n1	8%
CN(CCNC(=O)CCNC(=O)Cn1ccc2ccccc2c1=O)Cc1ccccc1	7%
Cc1ccc(C)c(N2N=C(C(=O)Nc3ccccc3N3CCCC3)CCC2=O)c1	-4%
CC(=O)N=c1ncn(CC(COC(C)=O)OC(C)=O)c2nc[nH]c12 (centres undefined)	-7%
COc1ccc(/C=C/C(=O)N[C@H](C(=O)O)C(C)C)cc1	-7%
CC(NC(=O)Nc1ccccc1Cl)c1ccc2c(c1)OCO2 (centres undefined)	10%
Cc1ccc(SCCC(=O)OCC(=O)Nc2ccc(S(N)(=O)=O)cc2)cc1	-5%
CCOC(=O)c1ccc(NC(=O)c2c(NCc3cccc(OC)c3)sc3c2CCC3)cc1	13%
CC(C)(C)OC(=O)N1CCC[C@H]1C(=O)Nc1ccc(Br)cc1	-23%
C[n+]1cccc(/C=N/Nc2nc(Cl)c(C#N)c(Cl)c2Cl)c1	4%
CC1=CC=CN2C1=NC(=O)CC2(C)C(=O)N(CC(=O)NC1CCCC1)Cc1ccccc1 (centres undefined)	-18%
CC(C)c1ccc(NC(=O)Cn2c(=O)oc3cc(S(=O)(=O)N4CCCC4)ccc32)cc1	4%
O=C(CSc1nc2ccccc2c(=O)[nH]1)Nc1ccc(Br)cc1	3%
COc1ccc(Cc2nnc(Nc3ccc(C)cc3C)[nH]c2=O)cc1	1%
O=C(N/N=C1\CCSc2ccc(F)cc21)c1cccnc1	-12%
Cc1ccc(S(=O)(=O)N2CCN(C(=O)CSC(=S)N3CCCC3)CC2)c(C)c1	-19%
CC(C)C(=O)NC(NC(=S)Nc1cccc2cccnc12)C(Cl)(Cl)Cl (centres undefined)	-10%
O=C(NCc1cc(C(F)(F)F)cc(C(F)(F)F)c1)C1CC(c2c(Cl)cccc2Cl)=NO1 (centres undefined)	12%
Nc1ncc(Br)cc1S(=O)(=O)NCCC(=O)N1CCN(c2ccccc2)CC1	-5%
CN1CCN(C(=O)c2ccc(CN3CCOCC3)cc2)CC1	10%
CCOC(=O)c1c(C)nc2c(c1-c1cc(OC)c(OC)c(OC)c1)C(=O)c1ccccc1-2	-4%
O=c1c(-c2ccccc2)nc2cnc(N3CCNCC3)nc2n1C1CC1	-15%
O=C(CCN1CCCCC1=O)NC1CCCc2c1cnn2-c1ccccc1F (centres undefined)	-8%
Cn1c(=O)c2c(SCc3cccc(C(F)(F)F)c3)nc(-c3ccco3)nc2n(C)c1=O	8%
CCCCCCN1C(=O)CC(NC(=O)OCC2c3ccccc3-c3ccccc32)C/C=C\C1C(C)C (centres undefined)	-2%
C#CCOc1ccccc1CNC1CCN(Cc2ccccc2)CC1	-6%
COC1OC2COC(c3ccccc3)OC2C2OC12 (centres undefined)	-5%
Cc1nn(-c2ncc(C(F)(F)F)cc2Cl)c(=O)n1-c1ccccc1Cl	-14%
Cc1cc(NC(=O)CN(C)S(=O)(=O)c2ccc3c(c2)CCCC(=O)N3)ccc1Br	-6%
O=C(Cn1ncc(Cl)c(Cl)c1=O)Nc1ccc2c(c1)OCO2	5%
CC(C(=O)N1CCCC1)c1ccc([N+](=O)[O-])cc1 (centres undefined)	1%
CC(=O)Nc1ccc(NC(=O)COC(=O)c2ccccn2)cc1	8%
COc1ccc(S(=O)(=O)Nc2ccccc2OC)cc1NC(=O)Cc1cccs1	u
COc1cc(SC)ccc1C(=O)N1CCN(c2ccccc2)CC1	22%
N=c1n(-c2ccccc2)c(O)cc(=O)n1-c1ccccc1	-1%
Cc1ccc(CN(C)CC(=O)Nc2ccc3c(c2)CCC3)cc1	-2%
Nc1ccc2c3c(cccc13)C(=O)N(c1ccccc1)C2=O	-11%
CCCCC1(C(=O)OCC)CC(CSC(=N)N)OC1=O (centres undefined)	-29%
O=C1CC(c2ccccc2)n2nc(NC(=O)c3ccccn3)nc2N1 (centres undefined)	4%
CCCCN(CCCC)S(=O)(=O)c1ccc(OC)c2ncccc12	3%
Cc1cc2c(n1-c1ccc(Br)cc1)CC(C)(C)CC2=O	-12%
N#CC1=C(Nc2ccccc2)SC=C(c2ccc(Cl)c(Cl)c2)N=C1N1CCOCC1	-18%

Molecule: CCOc1ccc(-n2c(Cc3cc(=O)[nH]c(=O)[nH]3)nnc2SCC)cc1
  VDR inhibitor: 12%

Molecule: COc1ccc(NC(=O)Nc2ccc(F)cc2F)cc1
  VDR inhibitor: -10%

Molecule: COc1ccccc1Oc1ccc(N/C=C2/CCCC2=O)cc1
  VDR inhibitor: -15%

Molecule: OCCN1CNC(=S)NC1
  VDR inhibitor: 1%

Molecule: CCOc1cc(CNc2ccc(OC)cc2)cc(Br)c1OCC(=O)NC(C)(C)C
  VDR inhibitor: -9%

Molecule: Cc1ccc2nc(Nc3ccccc3O)nc(-c3ccccc3)c2c1
  VDR inhibitor: -1%

Molecule: COc1ccccc1/C=N/NC(=O)c1ccccc1Cl
  VDR inhibitor: -6%

Molecule: O=C(Nc1nccs1)c1ccc(COc2c(F)c(F)cc(F)c2F)cc1
  VDR inhibitor: 7%

Molecule: C=CCNCCOc1ccccc1-c1ccccc1
  VDR inhibitor: 15%

Molecule: O=C(O)CSc1nnc(CNc2cccc(C(F)(F)F)c2)n1Cc1ccco1
  VDR inhibitor: -26%

Molecule: Nc1ccccc1NC(=O)c1ccccc1N
  VDR inhibitor: -19%

Molecule: COc1cccc(CN(CC(=O)NCc2ccco2)C(=O)CNS(=O)(=O)c2ccccc2)c1
  VDR inhibitor: -10%

Molecule: CC(C)Oc1ccc(C(=O)Nc2ccc3c(c2)CCCN3C(=O)c2cccs2)cc1
  VDR inhibitor: 1%

Molecule: CCOc1ccccc1Nc1ncccc1C(=O)N1CCCC1
  VDR inhibitor: 13%

Molecule: Cc1c(NC(=O)C2(c3ccccc3)CCOCC2)c(=O)n(-c2ccccc2)n1C
  VDR inhibitor: 14%

Molecule: CCOC(=O)c1sc(N2C(=O)c3oc4cc(C)c(C)cc4c(=O)c3C2c2ccc(C)cc2)nc1C (centres undefined)
  VDR inhibitor: 3%
